VDR inh – blocks the human vitamin D receptor | Potency, µM, for inactives: max response, negative = inhibition, actives largely listed as inhibitors | VDR-SRC2-3 peptide fluorescence polarization, 2 h | 400,000 compounds, 0.93% hits | P11473; active = well fitted inhibition curve with a large enough effect; inconclusive = small, poorly fitted or top-dose-only effect, or another doubt; inactive = no such curve, though single readings can be large or run the other way; also: series mostly up to about 120 µM
Target sequence (P11473 whole entry, looked up): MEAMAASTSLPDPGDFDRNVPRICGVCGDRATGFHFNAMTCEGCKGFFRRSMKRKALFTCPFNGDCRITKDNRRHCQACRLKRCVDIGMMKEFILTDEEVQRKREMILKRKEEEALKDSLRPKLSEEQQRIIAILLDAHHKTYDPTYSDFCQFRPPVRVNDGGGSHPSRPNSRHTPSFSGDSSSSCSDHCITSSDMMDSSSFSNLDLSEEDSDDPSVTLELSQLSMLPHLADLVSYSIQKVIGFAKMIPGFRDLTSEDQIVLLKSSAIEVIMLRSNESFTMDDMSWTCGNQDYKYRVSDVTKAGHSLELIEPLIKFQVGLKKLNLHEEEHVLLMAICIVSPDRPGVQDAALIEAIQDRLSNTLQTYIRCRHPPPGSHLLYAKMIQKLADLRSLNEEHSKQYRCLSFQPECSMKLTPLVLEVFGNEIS
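The screen uses fluorescence polarization to detect compounds that interfere with recruitment of the SRC2-3 coactivator peptide to VDR; plates are read after 2 h at room temperature.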
* marks the source's active call; other numbers are inactive results; ? = inconclusive; & = joins results of further samples. % is scaled to controls: 0 for no effect and ±100 for the full control effect; potency is read from the fitted curve at half-maximal effect.

VDR inh,Compound
13.3%,COc1ccc(C2c3cc(OC)c(OC)cc3CC3C(=O)OCC32)cc1OC (centres undefined)
-11.2%,CN(C(=O)c1ccc(NC(=O)Cc2ccc(NC(=O)C3CCCN(C(=O)C4CC4)C3)cc2)cc1)C1CC1 (centres undefined)
-12.1%&-4.6%,Clc1ccc(-c2nc3ncccn3c2Nc2ccc3c(c2)OCCO3)cc1
-1.3%,COc1ccc(Cl)cc1NC(=O)CN(C)C(=O)c1cc(-c2cccs2)nn1-c1ccccc1
20.4%,O=c1c2ccccc2nc(/C=C/c2cccc([N+](=O)[O-])c2)n1CCO
0.0%,COc1ccc(C(=O)[C@H]2[C@H]3C(=O)N(c4ccccc4)C(=O)[C@H]3C3C=CC=NN32)cc1 (some centres undefined)
14.0%,Cc1cccc(-n2c(SCC(=O)Nc3ncc(Cl)cc3Cl)nc3ccccc32)c1
0.9%,C[C@@H](C(=O)N1CCNCC1)n1cc(CCC(=O)O)nn1
18.0%,O=C(Nc1cccc(C(=O)OCc2cc(=O)n3c4c(sc3n2)CCCC4)c1)c1cccc(Cl)c1
?,COc1ccc(C2CC(c3ccc(OC)c(OC)c3)=NN2S(C)(=O)=O)cc1 (centres undefined)
-15.3%,Oc1ccc(Oc2ccc(Oc3ccc(O)cc3)cc2)cc1
0.8%,COc1ccc(CCNC(=O)/C=C/C(=O)O)cc1OC
-17.6%,COc1ccc(/C=C(/NC(=O)c2ccccc2)C(=O)N/N=C/c2sccc2C)cc1
-16.0%,CCc1noc(C)c1C(=O)NCCc1c[nH]c2ccccc12
-14.8%,CCOC(=O)N1CCN(C(=O)C2CCCN(S(=O)(=O)c3ccc(OCC)cc3)C2)CC1 (centres undefined)
17.3%,CCCCNC(=O)COn1nnc2ccc(S(=O)(=O)N3CCOCC3)cc21
-0.3%,CCCCNC(=O)Nc1nnc(-c2ccc(Cl)cc2)o1
-3.0%,Cc1ccc(-n2nnc3c(sc4nc(C)c(C)cc43)c2=O)cc1Cl
10.0%,CCNC(=O)Nn1c(C)nnc1C
-6.5%,COc1ccc2[nH]cc(CCNc3ncnc4ccc(-c5ccccc5C#N)cc34)c2c1
6.3%,CCOc1ccc(C2C(C#N)=C(N)Oc3cc(C)[nH]c(=O)c32)cc1OC (centres undefined)
24.7%,COC(=O)CC(NS(=O)(=O)c1cccs1)c1ccc2c(c1)OCO2 (centres undefined)
-18.0%,CCc1ccc(NC(=O)NCCN2CCCCC2)cc1
?,COc1cccc(Cn2c(=O)cnc3cncnc32)c1
-2.5%,CCOc1ccc(OCC)c(NC(=O)CCn2c(=O)oc3ccccc32)c1
-1.9%,CC(=O)Nc1ccc(NC(=S)NC(=O)C2CCCC2)cc1
15.6%,COc1ccc(NC(=O)CN(C)C(=O)c2csc3c2CCCC3)cc1
-12.2%,Cc1nnc(SCC(=O)Nc2ccc(N3CCOCC3)cc2)n1Cc1ccccc1
-8.2%,Cc1cc2cc(CNC(=S)NCc3ccccc3)ccc2n1C
0.3%,Cc1cccc(OCc2nnc(SCC(=O)N3c4ccccc4CC3C)n2C)c1C (centres undefined)
-15.3%,CCCC(=O)Nc1nnc(S(=O)(=O)N2CCCC2)s1
20.5%,Cc1noc(C)c1CSc1nnc(-c2ccccc2)o1
-15.2%,CCc1cccc(CC)c1NC(=O)CN1CCN(c2ccccc2)CC1
-7.1%,O=C(O)C(C=C(Cl)Cl)N1CCOCC1 (centres undefined)
24.5%,Cc1nc2c(-c3ccccc3)cnn2c(N2CCOCC2)c1C
-28.7%,Cc1cc[n+](CCC(=O)O)c2ccccc12
-18.0%,C=CCNC(=S)N1CCN(CCN=CC2=C(O)CC(c3ccc(Cl)cc3)CC2=O)CC1 (centres undefined)
4.0%,COc1ccc2c(c1)O[C@H](c1ccc3c(c1)OCO3)[C@@H](OC(=O)NCc1ccc3c(c1)OCO3)C2=O
-9.4%,CCOC(=O)N1CCN(S(=O)(=O)c2ccc(Cl)cc2)CC1
3.0%,Cc1cc(N2CCOCC2)nc2ccc(NC(=O)CCC(=O)N3CCCC(C)C3)cc12 (centres undefined)
16.0%,COc1ccccc1OCCSc1nc2ccccc2n1CCO
-7.7%,O=C(CCN1C(=O)c2ccccc2C1=O)Nc1sc2c(c1C(=O)NCC1CCCO1)CCC2 (centres undefined)
-5.1%,C/C(=N/NC(=O)c1ccn(C)n1)c1ccncc1
5.9%,COc1ccc2[nH]cc(CCNc3ncnc4ccc(-c5ccccc5CN(C)C)cc34)c2c1
-17.6%,S=c1[nH]nc(-c2ccccc2)n1/N=C/c1c[nH]c2ccccc12
-0.7%,CCOC(=O)N1CCN(C(=O)CN(CC)S(=O)(=O)c2cc(C)ccc2OC)CC1
-4.4%,CCC(c1nnc(SCC(=O)N2CC(=O)Nc3ccccc32)n1Cc1ccccc1)N(C)C (centres undefined)
79.4µM*,COc1ccc(-c2nc(=S)[nH][nH]2)cc1
?,CNc1n[nH]c(=S)s1
-11.9%,O=c1cc(CN2CCN(c3ccc(O)cc3)CC2)nc2scc(-c3ccccc3)n12
10.2%,CCOC(=O)C1CCCN(C(=O)c2cccc(NC(=O)c3nsc4ccccc34)c2)C1 (centres undefined)
-5.1%,O=c1c(=O)n(-c2cccc(Cl)c2)ccn1Cc1cccc(F)c1
11.5%,CN(C)C(CNC(=O)CCc1nc2ccccc2s1)c1ccccc1 (centres undefined)
16.1%,CC1CCN(C2=NC(=O)/C(=C/c3cn(-c4ccccc4)nc3-c3cccc(S(=O)(=O)N(C)C)c3)S2)CC1
5.7%,COc1ccc(-c2nc3sc(CCNS(=O)(=O)c4ccccc4)c(C)n3n2)cc1
4.5%,O=C1CC(c2cccc(O)c2)c2cc3c(cc2N1)OCO3 (centres undefined)

Remaining list, next part.
VDR inh,Compound
-11.0%,CCCCNC(=O)CSc1nc2cc3c(cc2c(=O)n1Cc1ccco1)OCO3
1.9%,Cn1ccsc1=NC(=O)c1ccc(S(C)(=O)=O)c([N+](=O)[O-])c1
-23.8%,CC(=O)N1CCN(C(=O)c2ccc(-c3cccc(C(F)(F)F)c3)o2)CC1
-2.6%,NC(=O)c1ccc(C(F)(F)F)cn1
-18.2%,CN1CCN(Cc2nc3c(c(=O)[nH]c(=O)n3C)n2CCc2ccccc2)CC1
-1.2%,CC(C)CNC(=O)NC(=O)CSc1nc2ccccc2n1CC(C)C
6.8%,CCCc1nn2cc(-c3ccc(C)c(C)c3)nc2s1
-11.6%,C=CC(O)Cc1c(C)n[nH]c1C (centres undefined)
10.4%,CCOC(=O)N1CCN(C(=S)NCCOC)CC1
13.9%,O=C(CSc1ccccc1)NCCCN1CCOCC1
1.4%,Oc1[nH]c2ccccc2c1C1=NCCCCC1
?,Cc1ccc(C(C)C)c(OCC(=O)N2CCN(c3ncccn3)CC2)c1
0.6%,COCCn1c(=O)[nH]c2cc(C(=O)NCc3cccnc3)ccc2c1=O
12.5%,COc1cc(NC(=O)CSc2nc3nc(C)c(Cc4ccc(C)cc4)c(C)n3n2)cc(OC)c1OC
0.4%,COc1cc(S(N)(=O)=O)c(OC)cc1N
0.0%,CCOc1ccccc1-c1cc(C(=O)N/N=C(\C)c2cccnc2)c2ccccc2n1
16.2%,Clc1cccc(Cl)c1OCCCCN1CCCCC1
-19.6%,CC(=O)NS(=O)(=O)c1ccc2sc(C)nc2c1
-4.5%,Cc1ccc(CSc2nnc(-c3ccccc3N)c(=O)[nH]2)cc1
11.2%,CCn1cc(S(=O)(=O)CC(=O)Nc2cc(C)on2)c2ccccc21
-6.5%,O=c1[nH]nc(SCc2cc(Cl)ccc2Cl)c(=O)[nH]1
27.9%,CC(C)C1Nc2ccc(C(=O)N3CCN(c4ccccn4)CC3)cc2NC1=O (centres undefined)
?,Cc1ccc(NC(=O)CSC(N)=O)cc1Cl
-2.6%,Cc1ccc(-n2c(=O)c3c(c4cc(C)ccc4n3C)n(CC(=O)Nc3ccc(F)cc3)c2=O)cc1
-3.3%,CCCCNC(=O)c1ccccc1SCc1c(C)noc1C
13.1%,Cn1c(CCNC(=O)c2ccccc2)nc2cc(NC(=O)c3ccco3)ccc21
-11.6%,c1cc2c(cc1CN1CCOCC1)OCO2
-8.3%,CCOC(=O)N1CCN(C(=O)CSc2ccc(-c3ccc(OC)cc3)nn2)CC1
-0.5%&-11.7%,COCCN1C(=O)N[C@@H](CCc2ccccc2)C(C(C)=O)=C1C
-3.8%,Cc1ccc2nc(NS(C)(=O)=O)sc2c1
4.1%,Cc1ccc(CCNC(=O)Cn2cccc2)cc1
-7.5%,CCN1CCc2nc(NC(=O)CC(c3ccccc3)c3ccccc3)sc2C1
9.0%,COc1ccc2c(c1)C(=O)Nc1cc(Cl)ccc1N2
-11.1%,CCOC(=O)c1cc(C)sc1NC(=O)CN1CCN(C(=O)C2CCCO2)CC1 (centres undefined)
-7.4%,CCOc1ccccc1N1CCN(C(=O)COc2ccc3c(C)cc(=O)oc3c2)CC1
-0.4%,Cc1cccc(-c2nnn3c2nc(NCCC(C)C)c2ccccc23)c1
35.5µM*,O=C(O)CN1C(=O)/C(=C\c2cc(Br)ccc2OCc2ccc([N+](=O)[O-])cc2)SC1=S
2.2%,CCN(C[C@H]1N[C@@](C)(C(=O)OC)[C@H]2C(=O)N(C)C(=O)[C@@H]12)C(=O)Nc1ccc(OC)cc1
-4.8%,O=[N+]([O-])c1cc2ccccc2nc1-c1ccccc1
-6.8%,Cc1c(C(=O)N(C)c2cccc(Cl)c2)cnn1-c1ccccc1
14.1%,O=C(NN1C(=O)C2C3C=CC(C4CC34)C2C1=O)c1ccc(Cl)cc1Cl (centres undefined)
13.0%,N#Cc1cc2c(nc1SCc1ccc(Cl)cc1)CCCC2
-11.8%,c1ccc(-c2nnc(C(c3ccccc3)c3ccccc3)o2)cc1
-1.0%,O=[N+]([O-])c1cc2cccnc2c2ncccc12
0.3%,c1ccc(CCc2cccnc2)cc1
-3.2%,COCC(=O)N(C)C[C@H]1N[C@@](C)(C(=O)OC)[C@H]2C(=O)N(Cc3ccccc3)C(=O)[C@@H]12
-13.3%,CCOc1ccc(C(C)=O)cc1COc1ccc(C)nc1[N+](=O)[O-]
1.3%,CCOCCC(=O)Nc1cc(Cl)ccc1OC
-1.2%,O=C(CCCc1ccccc1)NCc1ccccc1Cl
8.3%,CCN(CC)S(=O)(=O)c1cc(C(=O)O)ccc1OC
-7.0%,CC(C)(C)c1ccc(-c2noc(CCC(=O)NCc3ccco3)n2)cc1
-12.5%,CC(C)Cc1nc(S(=O)(=O)c2ccc(Cl)cc2)c(N2CCOCC2)o1
-10.9%,O=C(Nc1ccc(C(=O)O)cc1)/C(=C\c1ccco1)NC(=O)c1ccccc1
-7.0%,CCc1cc(=O)oc2cc(OCC(=O)NCCN3CCOCC3)c(Cl)cc12
10.5%,COc1ccc(C2N(c3ccccn3)C(=O)C3CCCN32)c(OC)c1 (centres undefined)
-20.1%,Cc1sc2nc(CSc3ncn[nH]3)[nH]c(=O)c2c1C

Further results.
VDR inh,Compound
14.9%,CC(C)OCCCNc1ncnc2c1[nH]c1ccc(F)cc12
-3.1%,O=C(CC1SC(=NCc2ccccc2)NC1=O)Nc1ccccc1 (centres undefined)
-6.4%,CN(C)S(=O)(=O)n1ccnc1
-4.1%,CC(=O)c1ccc(OCC(O)CN2CCN(c3ccc(F)cc3)CC2)cc1 (centres undefined)
-6.8%,CCOC(=O)c1cc2c(=O)n3ccccc3nc2n(CCCOC)c1=NC(=O)c1c(-c2c(F)cccc2Cl)noc1C
2.4%,COc1ccc(CNC(=O)C2CCCC2)cc1
-2.8%,O=C(O)c1ccc(/C=N/Nc2ccc(S(=O)(=O)N3CCCC3)cc2[N+](=O)[O-])cc1
-5.3%,O=C(CCc1ccccc1)Nc1cc(C(F)(F)F)ccc1Cl
-3.9%,CCOC(=O)N1CCC(NC(=O)c2ccc(CS(=O)(=O)c3ccccc3C)o2)CC1
-4.1%,CCOC(=O)c1cnc(-c2ccccc2)nc1N1CCOCC1
23.8%,CCOc1ccccc1NC(=O)CCN1CCN(S(=O)(=O)c2ccc(OC)cc2)CC1
-6.6%,CCc1ccc(NC(=O)C(=O)NCC2CCCN2S(=O)(=O)c2cccs2)cc1 (centres undefined)
-10.7%,COc1ccccc1N(CC(=O)NCc1ccc(F)cc1)C(=O)CCC(=O)Nc1ccccn1
-4.5%,CC(C)CCNC(=O)C1CCCN(S(=O)(=O)c2ccc3c(c2)CC(C)N3C(=O)C2CC2)C1 (centres undefined)

Entries listed so far that have an aryl thioether with sulfur outside any ring:
VDR inh,Compound
14.0%,Cc1cccc(-n2c(SCC(=O)Nc3ncc(Cl)cc3Cl)nc3ccccc32)c1
-12.2%,Cc1nnc(SCC(=O)Nc2ccc(N3CCOCC3)cc2)n1Cc1ccccc1
0.3%,Cc1cccc(OCc2nnc(SCC(=O)N3c4ccccc4CC3C)n2C)c1C (centres undefined)
20.5%,Cc1noc(C)c1CSc1nnc(-c2ccccc2)o1
16.0%,COc1ccccc1OCCSc1nc2ccccc2n1CCO
-4.4%,CCC(c1nnc(SCC(=O)N2CC(=O)Nc3ccccc32)n1Cc1ccccc1)N(C)C (centres undefined)
-11.0%,CCCCNC(=O)CSc1nc2cc3c(cc2c(=O)n1Cc1ccco1)OCO3
-1.2%,CC(C)CNC(=O)NC(=O)CSc1nc2ccccc2n1CC(C)C
13.9%,O=C(CSc1ccccc1)NCCCN1CCOCC1
12.5%,COc1cc(NC(=O)CSc2nc3nc(C)c(Cc4ccc(C)cc4)c(C)n3n2)cc(OC)c1OC
-4.5%,Cc1ccc(CSc2nnc(-c3ccccc3N)c(=O)[nH]2)cc1
-6.5%,O=c1[nH]nc(SCc2cc(Cl)ccc2Cl)c(=O)[nH]1
-3.3%,CCCCNC(=O)c1ccccc1SCc1c(C)noc1C
-8.3%,CCOC(=O)N1CCN(C(=O)CSc2ccc(-c3ccc(OC)cc3)nn2)CC1
13.0%,N#Cc1cc2c(nc1SCc1ccc(Cl)cc1)CCCC2
-20.1%,Cc1sc2nc(CSc3ncn[nH]3)[nH]c(=O)c2c1C

Part of the list above, with each value named:
Structure: COc1ccccc1N(CC(=O)NCc1ccc(F)cc1)C(=O)CCC(=O)Nc1ccccn1
  VDR inh: -10.7%

Structure: CCOc1ccccc1NC(=O)CCN1CCN(S(=O)(=O)c2ccc(OC)cc2)CC1
  VDR inh: 23.8%

The list is partial; the hit share may differ from the screen's.
